Mtb growth – Mycobacterium tuberculosis H37Rv growth inhibition, putative kinase inhibitor library, confirmatory dose response (AID 2842). M. tuberculosis H37Rv growth inhibition; higher % means a stronger effect; some inactives read as strong as hits. inhibition, % at 10 µg/mL; hits with a dose series show IC90 in µg/mL. 24,000 compounds, 5.2% hits;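 active = confirmed in a dose series; about a fifth of its hits are not listed in these tables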;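 note: bacteria incubated one week before Alamar blue readout; 0% = bacteria only wells and 100% = bacteria with high antibiotic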
The depositor's hits bear a star. This is a subset. The share of hits here may be higher or lower than overall.

SMILES	Mtb growth
O=C(CN1C(=O)c2cccc3cccc(c23)C1=O)NCC1CCCO1 (stereo not drawn)	-12%
Nc1nc(SCC(=O)Nc2ccc3c(c2)OCCO3)[nH]c(=O)c1NC(=O)c1cccs1	-3%
Cc1ccc(NC(=O)CSc2nc3c(c(=O)n2C)SC(C)C3)c(C)c1 (stereo not drawn)	-6%
CCOc1ccccc1C(=O)NCCc1cc2ccc(OC)cc2[nH]c1=O	10%
Cc1cc(N2C(=O)C(=O)/C(=C(/O)c3ccc(Cl)cc3)C2c2ccccc2)no1 (stereo not drawn)	4%
O=c1[nH]cnc2c1cnn2-c1ccc(Cl)cc1	9%
O=S(=O)(Nc1cccc(-c2nc3cccnc3s2)c1)c1ccccc1F	-3%
CCOc1ccc(-c2n[nH]c(C)c2Oc2ccccc2)c(O)c1	2%
CCOC(=O)CSc1ccc2nnc(-c3ccccc3)n2n1	1%
CC(=O)Nc1ccc(NC(=O)CN2CCC3(CC2)NC(=O)N(C)C3=O)cc1	-7%
Cc1ccc(CSc2nnc3[nH]c(=O)ccn23)cc1	-14%
O=C(CC1Sc2ccc(C(F)(F)F)cc2NC1=O)Nc1ccc(F)cc1 (stereo not drawn)	0%
CCOC(=O)CNC(=O)CSc1nnc(-c2c[nH]c3ccccc23)n1-c1ccc(OC)cc1	14%
Oc1ccc(-c2onc3ccc(Cl)cc23)cc1	15%
Cc1ccc(C)c(-c2nnc(NC(=O)c3ccc(S(=O)(=O)N4CCOCC4)cc3)o2)c1	-8%
Nc1ncnc(N2CCN(c3cccc(Cl)c3)CC2)c1[N+](=O)[O-]	3%
O=C(c1ccc2c(=O)n(Cc3ccc(Cl)cc3)c(=S)[nH]c2c1)N1CCN(c2ccccn2)CC1	-5%
COc1ccc(-n2nc3c(c2NC(=O)CCc2ccccc2)CSC3)cc1	-2%
Cc1ccc2nc(SCc3nc4c(cnn4-c4ccccc4)c(=O)[nH]3)[nH]c2c1	8%
O=C(Nc1cccc(Br)c1)c1cccc2nc3ccccc3nc12	3%
COc1ccc(/C(O)=C2\C(=O)C(=O)N(Cc3cccnc3)C2c2ccccc2F)cc1OC (stereo not drawn)	-26%
COc1ccccc1-n1c(=O)[nH]c2c(C(N)=O)nc(-c3ccc(Cl)cc3Cl)nc21	32%
CC(C)c1ccc(N2C(=O)C3N=NN(CC(=O)Nc4ccccc4)C3C2=O)cc1 (stereo not drawn)	-9%
CCOC(=O)C1=C(C)Nc2nc(SCc3ccccc3)[nH]c(=O)c2C1c1ccc(F)cc1 (stereo not drawn)	33%
CCOc1ccccc1NC(=O)c1oc2ccccc2c1NC(=O)c1ccc(F)c(F)c1	0%
CCc1ccc(-n2c(C)cn3c4c(=O)[nH]c(=O)n(C)c4nc23)cc1	-4%
O=C(CN1C(=O)c2ccccc2C1=O)OCC(=O)c1ccc(-c2ccccc2)cc1	-8%
CC(=O)NC(=O)c1cc2cc(Br)ccc2oc1=Nc1ccc(C#N)cc1	-3%
CC(C)c1cc(-c2nc(-c3cccnc3)no2)n[nH]1	-2%
O=C(Nc1nnc(-c2ccc3c(c2)CCCC3)o1)C1=COCCO1	9.8µg/mL*
O=C(OCn1nnc2ccccc2c1=O)c1ccc(Cl)cc1Cl	-8%
Cc1cc(OC(=O)c2ccccc2I)c([N+](=O)[O-])c(=O)[nH]1	9%
Cc1ccc(/C=C2/SC(=S)N(NC(=O)c3ccccc3Br)C2=O)o1	-3%
COc1ccccc1C(=O)Nc1sc2c(c1C(N)=O)CCN(C(C)=O)C2	4%
Clc1ccc(-c2csc(-c3cc4cc(Cl)ccc4oc3=Nc3ccccc3)n2)cc1	5%
COc1ccc(/C=N/NC(=O)CNC(=O)c2ccccc2)cc1OC	10%
Clc1ccc(N2CCN(c3ncnc4nc[nH]c34)CC2)cc1Cl	61%
Cc1ccc(-n2ncc3c(NNC(=O)c4ccc(Cl)cc4)ncnc32)cc1C	81%
O=C(Nc1ccc2c(c1)OCCO2)c1oc2ccccc2c1NC(=O)C(c1ccccc1)c1ccccc1	9%
CSc1nc2ccc3nc(Nc4nc5cc6c(cc5s4)OCO6)sc3c2s1	-2%

Structures shown so far that have fluorine (5):
SMILES	Mtb growth
O=S(=O)(Nc1cccc(-c2nc3cccnc3s2)c1)c1ccccc1F	-3%
O=C(CC1Sc2ccc(C(F)(F)F)cc2NC1=O)Nc1ccc(F)cc1 (stereo not drawn)	0%
COc1ccc(/C(O)=C2\C(=O)C(=O)N(Cc3cccnc3)C2c2ccccc2F)cc1OC (stereo not drawn)	-26%
CCOC(=O)C1=C(C)Nc2nc(SCc3ccccc3)[nH]c(=O)c2C1c1ccc(F)cc1 (stereo not drawn)	33%
CCOc1ccccc1NC(=O)c1oc2ccccc2c1NC(=O)c1ccc(F)c(F)c1	0%

Later entries:
SMILES	Mtb growth
CC(C)Sc1nc2c([nH]c3ccccc32)c(=O)n1-c1ccccc1	16%
COc1ccc(CC(=O)NCC(c2ccco2)N2CCc3ccccc3C2)cc1 (stereo not drawn)	12%
O=C(NCC(c1ccco1)N1CCN(c2ccc(F)cc2)CC1)c1c(F)cccc1F (stereo not drawn)	5%
O=C(Cn1cnc2c(nnn2-c2ccc(Br)cc2)c1=O)NCc1ccco1	-4%
CCOC(=O)c1oc2ccccc2c1NC(=O)c1ccc(C(F)(F)F)cc1	8%
O=C(c1ccccc1)c1cn(Cc2ccc(Cl)cc2)c2ccccc2c1=O	-8%
N#C/C(=C/c1cn(-c2ccccc2)nc1-c1ccc2c(c1)OCCO2)c1nc2ccccc2c(=O)[nH]1	-39%
Cc1cccc(Nc2ncnc3nc[nH]c23)c1	15%
COc1ccc(C(=O)Nc2nnc(-c3ccc(Br)cc3)o2)cc1OC	83%
Cc1cc(OC(=O)c2ccccc2)c([N+](=O)[O-])c(=O)[nH]1	-3%
Cc1cc(C)cc(N2C(=O)N(Cc3ccc(Cl)cc3)C3CS(=O)(=O)CC32)c1 (stereo not drawn)	2%
COc1ccc(OC)c(NC(=O)C2=C(C)NC(=S)NC2c2ccc(C(C)C)cc2)c1 (stereo not drawn)	77%
O=C(CN1N=NC2C(=O)N(c3ccc(Cl)cc3)C(=O)C21)Nc1ccccc1 (stereo not drawn)	-18%
CC1=NNc2nc3c(c(=O)n(C)c(=O)n3C)n2C1	-6%
CCc1nnc(NC(=O)CSc2nc(NC(C)=O)c(NC(=O)c3cccs3)c(=O)[nH]2)s1	-33%
Cn1cccc1Cc1nnc(SCC(=O)Nc2cccc3ccccc23)n1C	0%
COc1ccc(NC(=O)CSc2nc(N)c(NC(=O)c3ccc(F)cc3)c(=O)[nH]2)cc1	-2%
COc1ccc(/C=C/c2nc3ccccc3[nH]c2=O)cc1OC	-4%
Cc1ccc(N2C(=O)CSC23C(=O)N(CC(N)=O)c2ccccc23)cc1C (stereo not drawn)	-5%
COc1ccc(OC)c2[nH]c(=O)c(CCNC(=O)CCCc3ccccc3)cc12	-2%

A second format for part of the listing above:
| structure | Mtb growth |
| --- | --- |
| N#C/C(=C/c1cn(-c2ccccc2)nc1-c1ccc2c(c1)OCCO2)c1nc2ccccc2c(=O)[nH]1 | -39% |
| O=C(CN1N=NC2C(=O)N(c3ccc(Cl)cc3)C(=O)C21)Nc1ccccc1 (stereo not drawn) | -18% |

Next section.
SMILES	Mtb growth
O=C(NCc1ccco1)C(=O)c1c[nH]c2ccccc12	10%
CCCCC(=O)Nc1nnc(-c2ccc3c(c2)OCCO3)o1	9.1µg/mL*
CCNc1nc2c(c(=O)[nH]c(=O)n2C)n1CC(C)C	-6%
CCc1ccccc1-n1ccn(CC(=O)c2ccc(F)cc2)c(=O)c1=O	6%
COc1ccc(NC(=O)c2sc3nc4c(c(-c5cccs5)c3c2N)CCCCC4)cc1	2%
CCOc1ccc(S(=O)(=O)NCCn2nc(-c3ccc(OC)cc3)ccc2=O)cc1	-7%
O=C(CSc1nnc(CNC(=O)c2ccc(F)cc2)o1)Nc1ccc2c(c1)OCO2	-19%
Cc1ccc(OCC(=O)NN2C(=O)c3ccccc3C2=O)cc1	8%
O=C(CSc1ncnc2c1oc1ccccc12)Nc1ccc(F)cc1	11%
COc1ccc(CNC(=O)C(=O)Nc2cc3c4c(c2)CCC(=O)N4CCC3)cc1	-6%
CCOC(=O)c1sc2nc(Cc3ccc(OC)c(OC)c3)[nH]c(=O)c2c1C	-8%
CCOC(=O)c1c(NC(=O)c2ccc(C)c(C)c2)sc2c1CC(C)(C)NC2(C)C	0%
COCC(=O)Nc1c(C(=O)Nc2ccccc2)oc2ccccc12	7%
CC(=O)Nc1ccc(S(=O)(=O)NCCc2cc3ccc(C)c(C)c3[nH]c2=O)cc1	1%
CCOC(=O)c1nn(-c2ccc([N+](=O)[O-])cc2)c(=NC(C)=O)s1	-6%
Fc1cccc2sc(Nc3nc4cc5c(cc4s3)OCCO5)nc12	77%
O=C(CCn1c(=S)oc2ccccc21)Nc1ccc(O)c(-c2nc3ccccc3o2)c1	-9%
C=CCN1C(=O)SC(CC(=O)Nc2ccc(C)cc2)C1=O (stereo not drawn)	-9%
CC(=O)Nc1nc(-c2ccccc2)c(C(=O)c2ccccc2)s1	6%
CCC(CC)C(=O)Nc1nnc(-c2ccc(Br)cc2)s1	6%

The list goes on, overlapping the part above by 3 compounds.
SMILES	Mtb growth
C=CCN1C(=O)SC(CC(=O)Nc2ccc(C)cc2)C1=O (stereo not drawn)	-9%
CC(=O)Nc1nc(-c2ccccc2)c(C(=O)c2ccccc2)s1	6%
CCC(CC)C(=O)Nc1nnc(-c2ccc(Br)cc2)s1	6%
O=C(c1ccc(F)cc1)N1CCN=C1SCc1ccc([N+](=O)[O-])cc1	0%
COc1ccc(NC2CC(=O)N(c3cccc([N+](=O)[O-])c3)C2=O)cc1 (stereo not drawn)	-4%
CN1CCc2c(sc(NC(=O)c3cc4ccccc4oc3=O)c2C(N)=O)C1	35%
O=C1c2oc3ccccc3c(=O)c2C(c2ccccc2)N1Cc1cccnc1 (stereo not drawn)	-6%
Cc1cccc(-n2c(C)cn3c4c(=O)n(Cc5ccccc5)c(=O)n(C)c4nc23)c1	-9%
Cc1ccc(C(=O)c2cn(Cc3ccccc3)c3ccc(F)cc3c2=O)cc1	15%
CCOC(=O)c1nn(-c2ccc(Cl)cc2)c(=O)c2c(NC(=O)c3cccc(OC)c3OC)scc12	10%
COc1ccc(Nc2nc(N3CCN(c4cccc(Cl)c4)CC3)nc3nccnc23)cc1	10%
O=C(CSc1ccc2nnc(-c3ccccc3)n2n1)Nc1ccc(Cl)cc1	-3%
CCC(C(=O)Nc1c(C(=O)Nc2ccccc2OC)oc2ccccc12)c1ccccc1 (stereo not drawn)	-6%
COc1ccc(/C(O)=C2\C(=O)C(=O)N(Cc3cccnc3)C2c2cccnc2)cc1OC (stereo not drawn)	-6%
Cc1ccc(N2C(=O)CC(Sc3ncccc3C(=O)O)C2=O)cc1 (stereo not drawn)	-10%
CCOC(=O)c1oc2ccccc2c1NC(=O)CCc1ccccc1	4%
CC(=O)c1ccc(S(=O)(=O)NC2CC(=O)N(c3ccc(Cl)cc3)C2)cc1 (stereo not drawn)	5%
O=C(c1ccco1)N(CCCn1ccnc1)c1nc2ccc(Br)cc2s1	0.74µg/mL*
O=C(COc1ccc2ccccc2c1)N=Nc1c(O)[nH]c2ccc(Br)cc12	-8%
COc1ccc(OC(C)C(=O)N=Nc2[nH]c(N)c3ccccc23)cc1 (stereo not drawn)	4%
CCOC(=O)c1c(C)oc2ccc(NS(=O)(=O)c3ccc4ccccc4c3)cc12	9%
COc1cc(C(=O)NCCSc2ncc(-c3ccccc3)[nH]2)cc(OC)c1OC	-14%
C#CCn1c(=NC(=O)c2ccccc2[N+](=O)[O-])sc2cc(S(N)(=O)=O)ccc21	12%
CSc1nc2ccc3nc(NC(=O)c4cccc(Cl)c4)sc3c2s1	4%
COC(CNC(=O)C(=O)Nc1cc2c3c(c1)CC(=O)N3CCC2)OC	-1%
Cc1c(C(=O)Nc2nnc(-c3ccccc3)s2)cccc1[N+](=O)[O-]	1%
COc1cccc(/C=C2\SC(=S)N(c3ccc(O)c(C(=O)O)c3)C2=O)c1OC	1%
CCc1ccc(C(=O)c2cn(Cc3ccc(F)cc3)c3cc4c(cc3c2=O)OCCO4)cc1	83%
Cc1ccc(O)c(NC2=C(Cl)C(=O)N(c3ccc(Cl)c(Cl)c3)C2=O)c1	-15%
O=C(CCn1c(=O)oc2ccccc21)Nc1ccc(F)cc1F	12%
CS(=O)(=O)Nc1cc2c3c(c1)CCN3C(=O)CC2	-14%
Fc1ccc(CNc2nc3c(-c4cccc(Br)c4)nnn3c3ccccc23)cc1	2%
COc1cc(/C=N/NC(=O)CCc2c(C)n[nH]c2C)ccc1O	-6%
COc1ccc(-c2ccc3nnc(SCc4ccccn4)n3n2)cc1	-4%
O=C(CCc1n[nH]c(=O)[nH]c1=O)N/N=C/C=C\c1ccccc1	0%
CCCCC(=O)Nc1scc2c(C(=O)OCC)nn(-c3ccc(C)cc3)c(=O)c12	11%
Cc1cc(C)c(S(=O)(=O)N2CCC(C(N)=O)CC2)cc1C	-12%
CN(C)CCCN1C(=O)C(=O)/C(=C(/O)c2ccncc2)C1c1cccc(F)c1 (stereo not drawn)	2%
CC(C)OC(=O)c1ccc(NC(=O)c2ccncc2)cc1	41%
COc1ccc(NC(=O)c2oc3ccccc3c2NC(=O)CCc2ccccc2)cc1	2%
